Source: PubChem BioAssay
BJeLR lethal: BJeLR cell viability loss | BJeLR (HRASV12) viability, CellTiter-Glo ATP luminescence, 48 h; reference of the scale not given here | inhibition, % (concentration not given with the values) | actives 0.17% (n = 300,000);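 active = replicate mean above 50%; inconclusive = above 50% but judged a plate artefact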;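 note: 50 nL library stock added to about 25 µL; numbers are from one replicate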
Mtb hypoxia inh: inhibitors of hypoxia-regulated fluorescent reporter in Mycobacterium tuberculosis; fluorescence inhibition, % (no concentration beside the values); AID 1159583; actives 0.1% (n = 300,000); M. tuberculosis hypoxia-regulated fluorescent reporter, fluorescence;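 active = 35 to 45% if threefold the growth effect, above 45% if 1.5-fold the growth effect; inactive = the rest, general growth blockers included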;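 note: wells of about 50 µL received 100 nL stock; 0% = vehicle wells and 100% = reference inhibitor wells; whole bacteria with a GFP reporter of the hypoxia response; strong numbers were not always called active; many hits fall short of the cut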
Sa RN4220 lethal: kills Staphylococcus aureus RN4220; AID 1259311; actives 0.33% (n = 330,000); inhibition, % (test concentration not listed); S. aureus RN4220 growth, OD600, 16 h;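 active = z-score of -3 or lower and OD600 up to 0.18 on both plates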;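 note: plate controls were untreated cells for no effect and reference antibiotic for full effect; stock transfer was 100 nL into about 80 µL; one replicate is shown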
Autofluor counter: compound fluorescence in toxin protease inhibitor counterscreen. actives 3.1% (n = 360,000). fluorescence intensity (test concentration not listed). compound autofluorescence counterscreen, microsphere flow cytometry; active compounds read high. AID 624483;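 active = at least 3 SD above the mean of all compounds, about 16000 in these data; inconclusive = too few beads counted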;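 note: 100 nL of 1 mM stock went into each well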
ugtP null kill: compounds lethal to S. aureus RN4220 ugtP deletion mutant; OD600 growth, 16 h; some inactives read as strong as hits; growth inhibition, % (concentration not given with the values); actives 0.54% (n = 330,000); AID 1259309;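 active = z-score under -3 and OD600 up to 0.15 on both plates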;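 note: plate controls were untreated wells for no effect and antibiotic for full effect; wells of about 80 µL received 100 nL stock; the first replicate is given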
PrP UTR inh: suppresses PrP 5' UTR mRNA reporter expression; cell-based PrP 5' UTR mRNA reporter, plate reader; inhibition, % (no concentration beside the values); actives 0.35% (n = 340,000); AID 488862;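 active = every replicate at 50% or more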;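 note: 0 = median of the neutral control wells; tested in H4 reporter cells; numbers are from one replicate; inactives centre near -14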
Mtb hypoxia inh growth: second read-out of Mtb hypoxia inh, no call of its own (marks repeat the call); growth inhibition, %; measured here: M. tuberculosis growth (absorbance);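 0% = vehicle and 100% = reference antibiotic; read after six days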
An asterisk follows results filed as active; ? = inconclusive; nt = no result given; & = joins results of further samples.

Every second line gives: BJeLR lethal, Mtb hypoxia inh, Mtb hypoxia inh growth, Sa RN4220 lethal, Autofluor counter, ugtP null kill, PrP UTR inh
- CCCCN(CC)C(=O)c1ccc(Cl)cc1
    -7, 19, 17, 3.3, 4442, 2, -21
- Nc1nc(Cl)cc(Nc2ccccc2Cl)n1
    -18, -6, 3, 7.6, 4550, -17, -12
- CCC(=O)N1CCc2cc(S(=O)(=O)NC(C(=O)N3CCN(c4ccc(F)cc4)CC3)C(C)C)ccc21 (stereo unspecified)
    6, nt, nt, nt, 5325, nt, -22
- Cc1csc(=O)n1CCC(=O)NCc1ccc(F)cc1
    nt, -6, 2, 0.3, 6681, -2, -20
- COn1c(SCc2ccc(Cl)cc2)nc2ccccc2c1=O
    -2, 0, 0, 21, 22710*, -6, 4
- CNc1ccc(C2(O)C(=O)c3ccccc3C2=O)cc1
    7, 6, 12, 0.4, 2371, -10, -15
- C=CCC(CC(=O)N(CCO)Cc1ccccc1)C(=O)NC(COC(=O)C(CC=C)CC(=O)OC(C)(C)C)c1ccccc1 (stereo unspecified)
    nt, -1&10, 4&3, 3.6&-4.7, nt, 4&-22, nt
- O=C(Nc1ccccc1F)c1ccc(CSc2ccccc2)o1
    -3, 10, 1, 5.9, 2508, 7, -21
- Cc1ccccc1C(=O)N(Cc1cccs1)C1CCS(=O)(=O)C1 (stereo unspecified)
    10, 13, 2, 0.9, 5693, 3, -26
- CN(C)S(=O)(=O)c1ccc2c(c1)nc1n2CCC1
    13, 3, -1, 7.4, 2583, 1, -14
- COc1ccc(OC)c(NC(=O)Cn2cc(C#N)c3ccccc32)c1
    0, 11, 6, 1.1, 5752, 1, -19
- Cc1noc(C)c1S(=O)(=O)Nc1ccc(C(=O)NC2CCCCC2C)cc1 (stereo unspecified)
    1, nt, nt, -3.7, 3529, 6, -13
- Cc1cc(C)n(/N=C/c2c[nH]c3ccccc23)c(=O)c1
    -20, nt, nt, nt, ?, nt, -21
- COc1cccc(C=NNC(=O)C(C)n2nc(C)c([N+](=O)[O-])c2C)c1O (stereo unspecified)
    nt, 8, 4, 3.0, nt, 8, nt
- NC(=NCc1ccc2c(c1)OCO2)NC(=O)c1ccccc1
    0, 3, -4, -1.2, 4326, -9, -30
- COc1cc(C2C(C(C)=O)=C(O)C(=O)N2CCc2c[nH]c3ccccc23)ccc1O (stereo unspecified)
    -5, -4, 5, 0.7, 6527, 10, -17
- CCOC(=O)C1CCCN(C(=O)c2cccc(S(=O)(=O)N3CC(C)OC(C)C3)c2)C1 (stereo unspecified)
    13, 0, 0, 1.8, 4956, 6, -5
- CC1CN(Cc2nnc(-c3ccccc3)o2)CC(C)O1 (stereo unspecified)
    6, nt, nt, 1.3, 4655, 5, -13
- c1cnn(-c2cncc(-n3cccn3)n2)c1
    4, 3, -2, 7.3, 3789, 5, -13
- O=C(Nc1nc(-c2cccnc2)cs1)c1ccc([N+](=O)[O-])cc1
    0, 15, -10, -0.6, 3860, -4, -12
- CC(C)(C)NCCCCOc1ccc(F)cc1
    4, 3, 3, 6.0, 8272, -3, -24
- Cn1c(O)c(C=NCCCN2CCCC2=O)c(=O)n(C)c1=O
    -2, 0, -3, 7.6, 5412, 0, -6
- CN1CCN(CC(O)COCCOc2ccc(Br)cc2)CC1 (stereo unspecified)
    -5, 0, 4, 2.8, 2539, 3, -26
- COCCn1c(N)c(C#N)c2nc3ccccc3nc21
    8, 7, 12, 0.1, 9756, 0, -5
- COc1ccc(NC(=O)C2CCN(S(=O)(=O)c3ccc(N4CCCC4=O)cc3)CC2)cc1OC
    2, -9, 2, -3.6, 5921, -6, -5
- COc1ccccc1C1C2C(=O)N(c3ccccc3)C(=O)C2ON1c1ccccc1 (stereo unspecified)
    -1, 4, 2, 1.4, 5843, 5, 7
- Cc1nc(-c2ccc(Cl)cc2)sc1C1(C)CC(c2ccc([N+](=O)[O-])cc2)=NO1 (stereo unspecified)
    -5, 0, 1, 0.4, 4016, 0, 0
- O=C(Nc1ccnc(-c2cccnc2)n1)c1ccc(Cl)cc1
    0, 1, -1, 7.4, 11774, 11, -22
- CC(=NNc1ccccc1)c1cc2ccccc2oc1=O
    nt, 8, 8, 4.2, nt, 6, nt
- CCNc1nc(NCC)nc(NN=Cc2ccc(O)c(O)c2)n1
    nt, 2, 8, 11, nt, 18, nt
- CCCS(=O)(=O)N1CCCC(C(=O)NCc2ccc(C)cc2)C1 (stereo unspecified)
    0, 5, 3, -11, 2859, 0, -1
- COc1cccc(NC(=O)CSc2nnnn2C(C)C)c1
    7, 14, 5, 6.0, 4358, 6, -15
- O=C(CNc1ccc2ccccc2c1)NN=Cc1ccc(C(=O)O)cc1
    nt, 14, 10, 0.9, nt, 2, nt
- CCOP(=O)(OCC)c1cccc(OP(=O)(c2cccc([N+](=O)[O-])c2)c2cccc([N+](=O)[O-])c2)c1
    -18, 15, 5, 5.6, 6323, 5, nt
- COc1ccc(OCC(=O)Nc2ccc(S(=O)(=O)Nc3cc(C)on3)cc2)cc1
    -2, 7, 12, 1.4, 5330, 7, -8
- CC(C)c1ccc(/C=C2\CC/C(=C\C=NN(C)C)C2=O)cc1
    nt, -79, -8, 1.9, nt, 1, nt
- CCC1SC2=NC(C)=C(C(=O)OC)C(c3ccc(C)cc3)N2C1=O (stereo unspecified)
    -10, -2, -5, 26, 2472, 23, -8
- O=C(COC(=O)/C=C/c1ccccc1)Nc1cccc(Oc2ccccc2)c1
    -1, 1, 2, -3.8, 7743, -6, -23
- Cn1c(=O)c2c(-c3ccccc3)n3c4ccccc4ncc3c2n(C)c1=O
    -13, -3, 15, 1.4, nt, 4, nt
- O=C(NC(=S)Nc1ccc(S(=O)(=O)Nc2nccs2)cc1)c1ccc(F)c(F)c1
    -6, 15, 22, 14, 2540, 97*, 2
- Cc1cc(C)nc(NC(=O)c2ccc(Cl)cc2)n1
    1, 7, -5, 5.3, 2503, 10, 4
- COc1ccccc1CNC(=O)C(C)n1nc(C)c2c(C)n(-c3ccccc3)nc2c1=O (stereo unspecified)
    -3, 14, 5, 1.7, 6016, -1, -1
- Cc1ccc(NC(=O)CN(C)C(=O)CSc2nc3ccccc3c(=O)n2CCO)cc1
    nt, 0, 3, 2.0, 6154, 6, -12
- CSc1ccccc1NC(=O)c1ccccc1
    0, 1, -1, 1.5, 4889, 2, -16
- Cc1c(Cl)c([N+](=O)[O-])nn1CC(=O)N1CCCC1
    2, -2, 8, 0.8, 2710, 0, -20
- CC(=NOCC(=O)OC(C)C(=O)Nc1ccc(C)c(S(=O)(=O)N2CCOCC2)c1)c1ccc2c(c1)OCO2 (stereo unspecified)
    nt, 6, -1, 4.8, nt, 1, nt
- CC1(C)Cc2c(c(N3CCOCC3)nc3sc4c(NCc5ccco5)nnnc4c23)CS1
    -5, 4, 5, 24, 3174, 29, 16
- COc1ccc(-c2nnn(CC(=O)N(CCN3CCOCC3)C(C(=O)NC3CCCC3)c3ccco3)n2)cc1 (stereo unspecified)
    -14, -1, 2, 1.3, 7353, 6, -10
- CCCCn1c(N)c(N(C)C(=O)c2cc3c(F)cccc3s2)c(=O)[nH]c1=O
    nt, 7, 3, 5.4, 3704, 0, -5
- COC(=O)c1ccsc1NC(=O)CCc1ccccc1
    8, 3, -4, 3.0, 5650, -1, -33
- COc1ccc(S(=O)(=O)N2CCCN(CC(=O)Nc3ccc(NC(C)=O)cc3)CC2)cc1
    -4, -13, 4, 4.4, 6250, -3, -4
- COC(=O)CC1C(=O)NCCN1C(=O)CSc1nnc(Nc2ccc(OC)cc2)s1 (stereo unspecified)
    -3, 2, 5, -0.4, 4140, -9, -15
- CN(C)S(=O)(=O)n1cnc(C2C3C(=O)OCC3C[C@]23N=CN(Cc2ccccc2)C3=O)c1 (stereo partly specified)
    nt, 11, 5, 0.8, nt, -3, nt
- O=C(NCCN1CCCOC1=O)C(=O)NCCN1CCCOC1=O
    -6, 7, 0, 0.7, 3959, -7, -24
- CCCc1cc(C(=O)Nc2ccn(Cc3ccc(C)cc3)n2)no1
    3, 7, 3, 6.7, 4924, 0, -7
- O=C(Nc1ccccc1)Nc1ccccc1NS(=O)(=O)c1cccs1
    -7, 12, 7, -1.9, 2466, 5, -9
- CC(C)Cn1c(N)c(C(=O)COC(=O)c2cc(S(=O)(=O)N3CCOCC3)ccc2Br)c(=O)n(C)c1=O
    nt, 10, 0, 5.1, 2917, 2, -10
- O=C(NCc1ccco1)c1cnc2n(c1=O)CCS2
    19, 5, 10, -0.9, 9630, -2, -21
- O=C(c1ccccc1[N+](=O)[O-])N1CCCN(C(=O)c2ccccc2[N+](=O)[O-])CC1
    4, 3, -4, 5.0, 2424, 7, -7
- N#Cc1c(NC(=O)CCn2cnc3ccccc3c2=O)oc(-c2ccccc2)c1-c1ccccc1
    -5, nt, nt, -9.4, 4638, -16, -5

Remaining list, next part
Every second line gives: BJeLR lethal, Mtb hypoxia inh, Mtb hypoxia inh growth, Sa RN4220 lethal, Autofluor counter, ugtP null kill, PrP UTR inh
- O=C(O)c1ccc(-n2nnnc2SCc2ccccc2Br)cc1
    2, -8, 9, -3.6, 4062, 18, nt
- COC(=O)c1cc(S(=O)(=O)N2CCN(c3ccc(F)cc3)CC2)cn1C
    7, -7, 0, 1.8, 5189, 4, -13
- CCOc1ccc(C(=O)NC2CCN(C(=S)NCc3ccco3)CC2)cc1
    -3, -2, 0, -3.7, 12955, 5, 4
- O=C(C=Cc1c(Cl)nc2ccccn12)N1CCN(c2ccccc2F)CC1
    nt, 2, 17, 5.6, nt, -12, nt
- COc1ccc(-c2csc(NC(=O)CCNC(=O)c3ccco3)n2)cc1OC
    nt, 1, 3, 0.9, 8054, 13, -6
- O=C(NNc1ncnc2ccccc12)c1cccc(Cl)c1
    -3, 6, 0, 1.7, 3892, 11, -87
- Cc1oc2ccc(OC(=O)N3CCOCC3)cc2c1C(=O)OC(C)C
    4, 4, 15, 5.4, 23451*, 6, -12
- Cc1cccc(OCCN2C(=O)C(=O)c3cccc(C)c32)c1
    3, 6, 8, 18, 1852, 2, -15
- O=c1[nH]c2cc3c(cc2cc1CN(Cc1nnnn1CC1CCCO1)C1CCCCC1)OCO3 (stereo unspecified)
    -7, nt, nt, -0.7, 5532, -1, -21
- COc1ccc2cc(C#N)c(N3CCOCC3)nc2c1
    -3, 4, -11, 5.7, 4429, -1, -10
- Cc1cccc(Nc2ncnc3onc(-c4cccc(Cl)c4)c23)c1
    -33, 13, 6, 7.6, 4238, 1, -15
- CCN1CCN(C(=O)c2sc3ncnc(N4CCc5ccccc5C4)c3c2C)CC1
    -10, 2, 2, -0.5, 2707, 3, -11
- C[C@H]1CC[C@@]2(O[C@@H](CCO)C[C@@H](O)[C@@H]2O)O1
    -3, nt, nt, nt, 3027, nt, -25
- COc1cccc(-c2nnc(SCc3ccc(C#N)cc3)n2Cc2ccco2)c1
    -12, nt, nt, -0.2, 2970, -11, -7
- O=C(/C=C/c1ccccc1[N+](=O)[O-])NCc1ccccc1Cl
    -7, -6, 0, -2.4, 3615, -14, -14
- COC(=O)C1=C(N)c2c(F)cccc2C1(C#N)c1ccccc1 (stereo unspecified)
    1, 15, 4, 7.1, 3372, -1, -10
- COc1ccc(-c2cc(C(=O)N3CCN(c4ncccn4)CC3)c3ccccc3n2)c(OC)c1
    1, 3, 12, 0.8, 2425, -1, -12
- Cc1nn(C)c(=O)n1-c1ccc(Oc2ccccc2)cc1
    1, 9, 12, 4.8, 21312*, 2, -13
- O=C(COC(=O)c1cccc(NS(=O)(=O)/C=C/c2ccccc2)c1)Nc1ccccc1OC(F)F
    12, 7, 8, 2.7, 2138, -11, 1
- CC(=O)Nc1cc(C(C)(C)C)c(O)c(C(C)(C)C)c1
    10, -1, 11, 6.6, 8161, -17, -17
- CC1CN(Cc2ccccc2)C(=O)N(c2ccccc2)C1=O (stereo unspecified)
    nt, 10, 1, 1.2, 3877, 6, -25
- [O-][n+]1c2c(nn1-c1ccc(Cl)c(Cl)c1)-c1nonc1CC2
    -4, 10, -6, 5.3, 4655, 1, -20
- CCOC(=O)c1cc(-c2ccccc2)sc1NC(=O)C(C)N1C(=O)NC(C)(c2ccc(Cl)cc2)C1=O (stereo unspecified)
    -1, nt, nt, -11, 4248, -3, -20

Results in Mtb hypoxia inh growth, ugtP null kill and PrP UTR inh, for some of the entries so far:
SMILES | Mtb hypoxia inh growth | ugtP null kill | PrP UTR inh
Cc1oc2ccc(OC(=O)N3CCOCC3)cc2c1C(=O)OC(C)C | 15 | 6 | -12
CC(=O)Nc1cc(C(C)(C)C)c(O)c(C(C)(C)C)c1 | 11 | -17 | -17

No enrichment for hits. Share with any hit: about 4%.
